# Compound activity: PubChem BioAssay, National Center for Advancing Translational Sciences (NCATS)
# CtBP-E1A inh: CtBP/E1A binding inhibition | AlphaScreen GST-E1A/His-CtBP binding, 1536-well; hits give low values; control for the full effect not named in the record | activity change, % (concentration not given with the values) | 340,000 compounds, 0.49% hits | AID 651724; in the data active means activity change below about -65%; inconclusive means about -30% to -65%; inactive means above about -30%; also: % is scaled to controls: 0 for no effect and ±100 for the full control effect
#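 Steps: dispense buffer (Tris pH 8.0, NaCl 300 mM, TCEP 1 mM, BSA, Tween 20); add 5X protein mix (GST-E1A, His-CtBP, 125 nM each); pin 23 nL compound; 2 h at 37 °C, dark; add 5X beads (50 ug/mL); 1 h; read.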
# gsp ag: gsp mutant agonism. gsp mutant cells, cAMP HTRF, 30 min; control for the full effect not named in the record. Potency, µM (doses to about 76.9 µM), inactives show top-dose activation (cAMP increase), actives largely listed as activators. 340,000 compounds, 0.13% hits. AID 624287; active = well fitted activation curve with a large enough effect; inconclusive = small, poorly fitted or top-dose-only effect, or another doubt; inactive = no such curve, though single readings can be large or run the other way; cell line not stated here;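 also: phosphodiesterase inhibitor Ro 20-1724 added with compounds to block cAMP breakdown; potency is read from the fitted curve at half-maximal effect; nearly all actives have a fitted effect of over 60% in size; about a fifth of the inactives were tested at one dose only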
#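 Cells in DMEM/10% FBS with G418 were pretreated with compounds in DMSO plus […] (300 uM stock) for 30 min at 37C. cAMP was measured by HTRF (cAMP-d2 plus anti-cAMP antibody-K) after 30 min at room temperature.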
# D2 ag: human D2 receptor agonism in beta-arrestin assay; P14416; DiscoveRx PathHunter D2 beta-arrestin, luminescence, 90 min; 100% = 57 uM dopamine signal; activation, % (test concentration not listed); 360,000 compounds, 0.084% hits; in the data active = activation above about 40%; inconclusive = about 15% to 40%; inactive = below about 15%; also: compound concentration not given in the record; the text of the record calls up to 30% inactive
#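 DiscoveRx PathHunter D2 beta-arrestin cells (2,100/well) attached overnight, then compound-stimulated 90 min at 37 C in HBSS/10 mM HEPES/0.1% Tween-20 buffer; beta-galactosidase complementation read by luminescence after 1 h at ambient temperature. Dopamine 57 uM final (EC100) as control.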
# gsp antagonist: gsp mutant antagonism; Potency, µM (doses to about 76.9 µM), for the others: at the top dose activity change, negative = inhibition, hits mostly inhibitors; 340,000 compounds, 0.4% hits; gsp-mutant cells, cAMP HTRF, 30 min; control for the full effect not named in the record; active = falling curve of any shape with a large fitted effect; inconclusive = falling curve, mostly with a smaller effect; inactive = flat or rising curve; cell line not stated here;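 also: intracellular cAMP measured with PDE inhibitor Ro 20-1724 present during compound exposure; potency is read from the fitted curve at half-maximal effect; % is scaled to controls: 0 for no effect and ±100 for the full control effect; nearly all actives have a fitted effect of over 65% in size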
#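 Cells in G418 medium, seeded 16-24 h, 37C; buffer exchange to DPBS + 1 mM CaCl2, 0.5 mM MgCl2, 0.05% BSA; cpds in DMSO + […] (300 uM stock), 30 min 37C; HTRF cAMP detection.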
# Six1-Eya2 inh: Six1/Eya2 interaction inhibition | Q15475+O00167 | AlphaScreen GST-Six1/His-Eya2 binding, biochemical; hits give low values; control for the full effect not named in the record | activity change, % (concentration not given with the values) | 360,000 compounds, 0.56% hits | AID 651725; in the data active = activity change below about -65%; inconclusive = about -30% to -65%; inactive = above about -30%; also: % is scaled to controls: 0 for no effect and ±100 for the full control effect
# Target sequence (O00167 whole entry, looked up): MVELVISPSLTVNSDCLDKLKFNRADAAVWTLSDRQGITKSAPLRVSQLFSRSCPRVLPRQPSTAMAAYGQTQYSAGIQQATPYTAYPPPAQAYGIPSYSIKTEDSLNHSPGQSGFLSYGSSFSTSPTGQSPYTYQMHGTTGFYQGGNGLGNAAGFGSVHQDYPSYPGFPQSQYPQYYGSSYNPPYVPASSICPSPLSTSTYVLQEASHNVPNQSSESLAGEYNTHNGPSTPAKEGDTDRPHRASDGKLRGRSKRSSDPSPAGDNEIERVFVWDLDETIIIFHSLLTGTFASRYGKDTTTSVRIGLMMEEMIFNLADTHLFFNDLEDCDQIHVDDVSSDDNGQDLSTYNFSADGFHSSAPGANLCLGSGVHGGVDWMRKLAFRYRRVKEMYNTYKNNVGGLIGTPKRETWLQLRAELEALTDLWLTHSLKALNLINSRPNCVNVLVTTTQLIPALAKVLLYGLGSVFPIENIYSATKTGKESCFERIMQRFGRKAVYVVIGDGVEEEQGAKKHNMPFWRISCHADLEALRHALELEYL
# Target sequence (Q15475 whole entry, looked up): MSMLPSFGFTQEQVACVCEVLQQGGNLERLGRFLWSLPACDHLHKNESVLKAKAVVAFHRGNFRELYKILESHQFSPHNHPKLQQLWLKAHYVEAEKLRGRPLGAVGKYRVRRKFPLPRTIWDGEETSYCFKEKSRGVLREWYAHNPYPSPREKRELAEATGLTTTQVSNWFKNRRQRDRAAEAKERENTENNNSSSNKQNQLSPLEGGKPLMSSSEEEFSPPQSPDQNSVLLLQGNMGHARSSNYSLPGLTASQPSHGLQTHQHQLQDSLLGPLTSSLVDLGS
#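 Compounds are tested against tagged Six1 and Eya2 proteins bridged by glutathione donor and nickel acceptor beads; after a one-hour incubation at 37 °C without light, AlphaScreen emission is recorded.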
# D2 PAM: human D2 receptor positive allosteric modulation; P14416; DiscoveRx D2 beta-arrestin cells, luminescence, 90 min; 100% = 57 uM dopamine signal; potentiation, % (no concentration beside the values); 360,000 compounds, 0.23% hits; AID 624464; active = potentiation of 50% or more; inconclusive = 30% to 50%; inactive = 30% or less;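 also: compound concentration not given in the record; tested on top of an EC20 dose of dopamine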
#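 PathHunter D2 cells, attached overnight at 37 deg C, received compound in DMSO plus dopamine at EC20 (50 nM final) for 90 min at 37 deg C. Beta-arrestin recruitment was read as luminescence after 1 h with detection reagent at ambient temperature.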
# Numbers without * were called inactive; u = inconclusive; x = no result given; [ ] = another dose, or the depositor's remark.
no.	structure	CtBP-E1A inh	gsp ag	D2 ag	gsp antagonist	Six1-Eya2 inh	D2 PAM
1	Cc1cccc(Nc2nc(NCc3ccco3)nc(N3CCOCC3)n2)c1	-20	5%	-1.1	7%	-7	-18
2	Cc1ccc(C)c(NC(=O)COC(=O)c2ccc(S(=O)(=O)N3CCCCC3)cc2)c1	15	-47%[inhibitor]	-2.9	6%	-3	-14
3	CCSc1nnc(NC(=O)c2ccc3c(c2)OCO3)s1	0	8%	1.3	12%	1	-3
4	CCCC(=O)N1CCC1(C)C(=O)NS(=O)(=O)c1ccc(OC)cc1 (stereo not given)	4	x	-4.6	x	8	-4
5	CC1CCc2c(sc3nn[nH]c(=O)c23)C1 (stereo not given)	0	11%	0.9	-1%	4	-22
6	CC(C)(CNC(=O)c1cccc(NS(=O)(=O)c2ccc(Br)cc2)c1)N1CCOCC1	-5	-5%	-2.2	11%	-1	-23
7	COc1ccc(C(=O)N(C(C)C)C(C)C)c(OC)c1	5	-15%	-4.2	16%	2	-17
8	Cc1ccc(S(=O)(=O)N(C)C)cc1NC(=O)COC(=O)CCCOc1ccccc1	-1	u	-2.0	7%	-1	-13
9	CSc1nc2ccc(Nc3nc(N4CCOCC4)nc(N4CCOCC4)n3)cc2s1	-7	-28%	-2.2	-5%	-2	-2
10	Cc1ccc(CC2C(=O)N(c3nc(C)cc(C)n3)C(=O)C2C)cc1 (stereo not given)	12	-15%[15.4 µM]	-3.3	10%	10	7
11	O=C(CSc1nc2ccccc2o1)NCc1ccc2c(c1)OCO2	-13	-25%	3.4	-14%	-14	6
12	O=C(/C=N/O)Nc1ccc2sc3ccccc3c2c1	-2	1%[15.4 µM]	2.9	-17%	-6	5
13	O=C(O)c1cc(-c2ccc(N3CCOCC3)cc2)nn1-c1ccc(F)cc1F	0	22%	-3.1	-10%	3	-8
14	COc1ccc(NC(=O)C2CCN(S(=O)(=O)c3ccc(C)cc3)CC2)cc1OC	-6	-62%[inhibitor]	-1.4	10%	0	-14
15	CCOc1cccc(-c2c(C(=O)N/N=C/c3c(F)cccc3Cl)nnn2-c2nonc2N)c1	-9	u	-4.3	-18%	-3	-19
16	C=CCn1c(SC(CCO)C(=O)NCc2ccco2)nc2sc3c(c2c1=O)CCC3 (stereo not given)	2	-3%	-4.4	-17%	-5	-16
17	COc1ccc(C(O)Cn2c(=N)n(CCCN(C)C)c3ccccc32)cc1 (stereo not given)	0	-18%	-2.0	10%	13	-9
18	COc1ccccc1OCCCCNCCO	0	u	-4.6	-6%	0	-11
19	O=C(CCC1CCCN(C(=O)c2ccccc2Cl)C1)N1CCN(c2ccccn2)CC1 (stereo not given)	2	-44%[inhibitor]	-5.0	-12%	2	0
20	O=[N+]([O-])c1ccc(S(=O)(=O)NN=C2CCCCC2)cc1	-24	21%	-4.9	7%	9	-3
21	CCC(C)N(CCNC(=O)CC1Oc2ccccc2NC1=O)C1CCCCC1 (stereo not given)	-2	-36%[inhibitor]	-4.8	6%	-3	-2
22	Cc1ccc(SCc2ccc(C(=O)Nc3cccc([N+](=O)[O-])c3C)cc2)cc1	5	-22%	0.9	-1%	-1	-13
23	O=C(Nc1cccnc1)c1cc(S(=O)(=O)N2CCCCC2)c(Cl)cc1Cl	-11	-4%[15.4 µM]	0.2	-6%	-13	2
24	CSCC(=O)N1CCC(Oc2cccc(C(=O)NCc3ccccn3)c2)CC1	2	-15%	-3.3	7%	-3	-8
25	CCC(=O)N1N=C(c2c(-c3ccccc3)c3cc(Cl)ccc3[nH]c2=O)CC1c1ccco1 (stereo not given)	4	5%[15.4 µM]	-0.4	-12%	-2	-3
26	CC1CCCC(C)N1S(=O)(=O)c1ccc(Cl)cc1 (stereo not given)	19	-10%	-2.3	-9%	28	-1
27	Cc1c(C(=O)NCc2ccc3c(c2)OCO3)sc2nc(-c3ccc(F)cc3)cn12	0	-34%[inhibitor]	-1.3	-15%	-3	-9
28	N#Cc1ccc(C(=O)OCC(=O)NC(=O)NCc2ccccc2)cc1	5	13%[15.4 µM]	3.0	5%	0	3
29	CCC1CCCCN1CCCNC(=O)CS(=O)Cc1nc(-c2ccc(OC)c(OC)c2)oc1C (stereo not given)	x	-26%	-3.9	-5%	1	-8
30	Cc1ccc(N(C(=O)c2csnn2)C(C(=O)NC(C)(C)C)c2ccccn2)cc1 (stereo not given)	0	4%	-1.4	12%	5	-6

# Next part, overlapping the part above by four compounds.
no.	structure	CtBP-E1A inh	gsp ag	D2 ag	gsp antagonist	Six1-Eya2 inh	D2 PAM
27	Cc1c(C(=O)NCc2ccc3c(c2)OCO3)sc2nc(-c3ccc(F)cc3)cn12	0	-34%[inhibitor]	-1.3	-15%	-3	-9
28	N#Cc1ccc(C(=O)OCC(=O)NC(=O)NCc2ccccc2)cc1	5	13%[15.4 µM]	3.0	5%	0	3
29	CCC1CCCCN1CCCNC(=O)CS(=O)Cc1nc(-c2ccc(OC)c(OC)c2)oc1C (stereo not given)	x	-26%	-3.9	-5%	1	-8
30	Cc1ccc(N(C(=O)c2csnn2)C(C(=O)NC(C)(C)C)c2ccccn2)cc1 (stereo not given)	0	4%	-1.4	12%	5	-6
31	CN(CC(=O)Nc1c(Cl)cccc1Cl)C(=O)CC1Sc2ccccc2NC1=O (stereo not given)	4	3%[15.4 µM]	-0.1	4%	1	10
32	CCN(CC)S(=O)(=O)c1ccc(C(=O)NCCc2cc3c(OC)ccc(OC)c3[nH]c2=O)cc1	8	-26%	2.2	-19%	2	11
33	CCC1(c2ccccc2)NC(=O)N(CC(=O)Nc2cc(Cl)ccc2N2CCN(C)CC2)C1=O (stereo not given)	-5	20%	-1.6	20%	-1	-3
34	O=C(O)c1ccc(C(=O)c2ccc3c(c2)C(=O)N(Cc2ccco2)C3=O)cc1	-1	0%	-0.2	-15%	-2	-9
35	Cc1ccc(-n2nc3c(=O)n(CC(=O)NCCc4ccc(Cl)cc4)nc(C)c3c2C)cc1	x	28%	-2.4	-17%	2	-19
36	CCc1nc2c(OCCn3cccc3)cccn2c1N(C)C(=O)c1cccs1	-14	x	-4.0	x	-11	-1
37	Cc1c(C(=O)Nc2ccc(S(=O)(=O)Nc3ncccn3)cc2)oc2ccccc12	-3	9%	-0.3	u	-5	-3
38	Cc1ccc2c(c1)c1c3n2CCN(CC(N)=O)C3CCC1 (stereo not given)	-8	-11%	-1.5	5%	0	0
39	CCCc1c(C(=O)Nc2ccc(F)cc2F)cnn1-c1ccccc1	x	u	-1.5	-13%	24	-20
40	Cc1ccc(NC(=O)CN2C(=O)NC(C)(c3ccc(Cl)cc3)C2=O)c(Br)c1 (stereo not given)	0	-26%	-0.6	-5%	7	-4
41	COCCNC(=S)NN=C1CCC(c2ccccc2)CC1 (stereo not given)	-2	-28%	-2.0	8%	-8	-7
42	Cc1ccc2c(=O)cc(C(=O)NCc3ccccc3)oc2c1C	x	13%	-0.1	-5%	3	-15
43	Cc1ccc(C)c(OCC(=O)NNC(=O)CCN2CCN(c3ccccc3)CC2)c1	16	17%	15	1%	1	-13
44	CC(C)Oc1ccc(S(=O)(=O)N2CCOCC2)cc1NC(=O)c1ccc(Cl)c(S(=O)(=O)N2CCOCC2)c1	11	-44%[inhibitor]	0.4	x	-3	3
45	Cn1cnnc1SCC(=O)Nc1nc(-c2ccc(F)cc2)cs1	-6	-4%[15.4 µM]	3.2	13%	10	6
46	CCOc1nc(-c2ccccc2)ccc1-c1noc(-c2ccncc2)n1	1	-1%	-1.0	6%	2	1
47	CCC(Oc1ccccc1OC)C(=O)N1CC(=O)Nc2ccccc21 (stereo not given)	-5	6%[15.4 µM]	-2.9	-2%	5	-3
48	Cc1ccccc1OCc1nc2ccccc2c(=O)n1/N=C/c1cn[nH]c1-c1ccccc1	14	-6%[15.4 µM]	-2.4	u	-12	8
49	CC(=O)N1CCN(S(=O)(=O)c2cccc(C(=O)OCC(=O)N(Cc3ccccc3)C(C)(C)C)c2)CC1	3	-13%	-1.2	-12%	0	-1
50	Cc1ccc(NC(=O)CSc2nnc(-c3n[nH]c4ccccc34)n2-c2ccccc2)c(C)c1	12	12%	2.3	-23%	0	-17
51	CCCNC(=O)c1oc2ccc3c(c2c1C)C=CC(C)(C)O3	3	7%[15.4 µM]	3.1	-10%	5	-8
52	CCN(CC)c1ccc(-c2nn3c(-c4ccccc4OC)nnc3s2)cc1	9	0%	-0.7	-5%	7	-3
53	CCOC(=O)c1c(NC(=O)COC(=O)Cn2c(C)nc3ccccc32)sc2c1CCCC2	10	-33%[inhibitor]	-4.0	7%	0	6
54	CCn1cc(C(=O)NCCN(CC(C)C)CC(C)C)c(=O)c2cc(S(=O)(=O)N3CCOCC3)ccc21	-19	-1%	-2.3	-5%	3	-6
55	O=C(COC(=O)Cc1ccccc1F)Nc1ccc(SC(F)F)cc1	10	8%[15.4 µM]	-5.1	18%	-4	-9
56	CCN(CC)CCNC(=O)CNC(=O)c1nn(-c2ccc(OC)cc2)c(=O)c2ccccc12	-3	12%	-5.6	13%	0	-12
57	COc1ccc(C2=NN(CN3C(=O)C(=O)c4ccccc43)C(c3ccc(Br)cc3)C2)cc1 (stereo not given)	-12	-27%	-2.2	-1%	-6	-2
58	Cc1cccc(N(C)C(=O)c2cc3c(=O)[nH]c4ccc(C)cc4c3s2)c1	-7	-10%[15.4 µM]	-1.7	15%	-13	-8
59	Cc1ccccc1OCCNC(=O)/C=C/c1ccc([N+](=O)[O-])cc1	-11	1%[15.4 µM]	-3.7	2%	-11	2
60	Cc1nn(Cc2ccc(Cl)c(Cl)c2)c(C)c1NC(=O)c1cc(C2CC2)on1	-1	-17%	-1.5	-16%	1	9
61	CCCn1c(N)c(CC)c(=O)[nH]c1=O	-18	-14%[15.4 µM]	0.9	14%	-11	-4
62	Cn1ccnc1Sc1ccc(/C=N/NC(=O)c2ccccc2[N+](=O)[O-])cc1[N+](=O)[O-]	-5	u	0.7	-11%	-11	14
63	CCOc1ccccc1NC(=O)NC1CCN(CC(=O)Nc2ccc3c(c2)OCCO3)CC1	-3	-36%[inhibitor]	0.4	-2%	-1	-19
64	Cc1nc(N2CCOCC2)nc(Oc2ccccc2F)c1[N+](=O)[O-]	0	20%[15.4 µM]	0.1	7%	-15	-6
65	Cc1cc(C)c2nc(N3CCC(C(=O)N4CCN(C(=O)c5ccco5)CC4)CC3)sc2c1	-12	5%	-0.7	-8%	-16	-9
66	O=C(O)c1ccc(S(=O)(=O)N2CCC(NC(=O)C3CCCCC3)CC2)cc1	-4	-3%[15.4 µM]	-1.7	21%	3	u
67	O=C1CC(NCc2ccncc2)C(=O)N1c1ccccc1 (stereo not given)	5	-23%	-2.1	-6%	0	12

# Hits appear at their usual frequency, and some 1.4% of all compounds hit somewhere here.
